KSHV LANA nucl = LANA-nucleosome interaction inhibition | FITC-LANA1-23 / chicken nucleosome fluorescence polarization; active compounds read low | z-score (test concentration not listed) | 51,000 tested, 0.3% active | AID 720717;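 active = both repeat wells score below -2 in polarization z-score versus plate sample wells, excluding overly bright wells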;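 also: 100 nL library stock added to about 30 µL; numbers are from one replicate; some results filed as inactive read as strong as hits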
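Assay system: FITC-LANA peptide and chicken nucleosomes; input: 240 nM purified chicken nucleosomes (480 nM peptide binding sites), final; also added: 50 nM FITC-LANA1-23 probe; medium: TEN-BT buffer, pH 7.5; doses: pin-transferred compound, 100 nL; times: 10–45 min, room temperature; technique: fluorescence polarization; replication: duplicates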
BasE inh = blocks the Acinetobacter baumannii siderophore enzyme BasE; AID 485350; inhibition, % (test concentration not listed); purified BasE, fluorescence polarization binding displacement; 84,000 tested, 0.1% active;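 active = both replicates above 25% with normal brightness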;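 also: 0% = negative plate control signal and 100% = positive plate control signal; stock transfer was 100 nL into about 30 µL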
Active calls of the source: *. Not all compounds are listed, so the mix of outcomes need not match the whole.

How did COc1ccccc1N1CCN(CC(N)=O)CC1 do in these assays?
KSHV LANA nucl: 0.25; BasE inh: 1.7

Results for Cc1oc2ccccc2c2nn(C)c(=O)c1-2 ?
KSHV LANA nucl: -0.23; BasE inh: 4.5

How did CC(C)N1CCc2c(sc(NC(=O)C3=COCCO3)c2C(N)=O)C1 do in these assays?
KSHV LANA nucl: -0.59; BasE inh: -4.7

What do the screens show for `COc1cccc(OC)c1C(=O)OCC(=O)NC1CCCCC1C` (stereo unspecified)?
BasE inh: 1.7

What do the screens show for `COc1ccc(O)c(C2(O)C(=O)c3ccccc3C2=O)c1`?
BasE inh: 1.9

What do the screens show for `CCC(=O)NC(C)C(c1cccs1)N1CCN(Cc2ccccc2)CC1` (stereo unspecified)?
KSHV LANA nucl: -1.5; BasE inh: -0.1

How did CCCOc1cccc(C(=O)Nc2ccc(C(=O)OC)cc2)c1 do in these assays?
BasE inh: 1.7

How did COc1ccc2c(C)c(CC(C)O)c(=O)oc2c1 (stereo unspecified) do in these assays?
BasE inh: -1.2

How did Cc1ccc(-n2c(SCC(=O)N3CCNC3=O)nnc2-c2ccccc2)cc1C do in these assays?
BasE inh: 2.4

What do the screens show for `COc1ccc(CN(C)S(C)(=O)=O)cc1`?
KSHV LANA nucl: 0.23; BasE inh: 2.5

Results for Cc1nnc(NC(=O)c2cn(-c3ccccc3)nc2-c2cccnc2)o1 ?
BasE inh: 13

Results for FC(F)(F)c1cc(-c2ccc(Br)cc2)n[nH]1 ?
KSHV LANA nucl: -0.25; BasE inh: -0.9

What do the screens show for `NNc1ncnc2c1oc1ccccc12`?
BasE inh: -0.9

Results for CCC(=O)Nc1ccc(S(=O)(=O)N2CCCCC2CC)cc1 (stereo unspecified) ?
KSHV LANA nucl: -0.16; BasE inh: 2.0

What do the screens show for `COc1ccc2oc(=O)c(-c3nc(-c4ccncc4)n[nH]3)cc2c1`?
KSHV LANA nucl: -0.72; BasE inh: 2.2

How did CCN(C(=O)c1cccc(C)c1)c1ccccc1 do in these assays?
KSHV LANA nucl: -0.085; BasE inh: 2.2

How did O=C(O)Cc1ccc2c(c1)CCC2 do in these assays?
KSHV LANA nucl: -0.37; BasE inh: 2.2

How did CN(c1ccc(-c2csc(-c3cccs3)n2)cc1)S(C)(=O)=O do in these assays?
BasE inh: 0.0

Results for O=C1OCC(c2ccc(Cl)cc2)=C1c1cccs1 ?
BasE inh: -19

What do the screens show for `S=C(NCCn1cc(Br)cn1)Nc1ccc2c(c1)OCO2`?
KSHV LANA nucl: -0.75; BasE inh: -0.6

What do the screens show for `COc1cccc(C(=O)CC(C(=O)O)c2ccc(F)cc2)c1` (stereo unspecified)?
KSHV LANA nucl: 0.2

How did Cc1ccc2c(CC(=O)OC(C)C(=O)Nc3ccc(N4CCOCC4)cc3)coc2c1 (stereo unspecified) do in these assays?
BasE inh: 0.7

How did COC(=O)C1=C(C)NC(=O)/C1=C\c1cc(C)n(-c2ccc(OC)c(Cl)c2)c1C do in these assays?
BasE inh: 1.8

Results for CN(c1cc(=O)n2ccccc2n1)C1CCCCC1 ?
BasE inh: 3.3

How did COc1ccc2cc3c(nc2c1)OCC3 do in these assays?
KSHV LANA nucl: -0.072; BasE inh: -0.9

What do the screens show for `Cc1nc2sc3c(c2c2nnc(SCC(=O)c4ccccc4)n12)CCCC3`?
BasE inh: -0.6

Results for O=c1oc2c(ccc3c(O)cccc32)c2c1CCCC2 ?
KSHV LANA nucl: -0.1; BasE inh: 2.0

Results for Nc1c2c(nn1Cc1ccccc1)CCCn1c-2nc2ccccc2c1=O ?
BasE inh: -2.5

How did CC1(N(O)/C=C2/C=CC=N2)CCCCC1=O (stereo unspecified) do in these assays?
KSHV LANA nucl: -0.051; BasE inh: 1.1

Results for CC(=O)Nc1cccc(C(=O)NCc2ccccc2F)c1 ?
BasE inh: -0.3

How did O=C(c1ccco1)N1CCN(C(=O)c2cnn(-c3ccccc3)c2-n2cccc2)CC1 do in these assays?
KSHV LANA nucl: -0.94; BasE inh: 0.9

How did CCOC(=O)c1cccc(CSc2n[nH]c(N)n2)c1 do in these assays?
KSHV LANA nucl: 0.38; BasE inh: 1.0

Results for COc1ccc(OCC(C)N)cc1 (stereo unspecified) ?
KSHV LANA nucl: 0.13; BasE inh: -1.8

How did O=C(O)/C=C\C(=O)Nc1ccc2cn[nH]c2c1 do in these assays?
KSHV LANA nucl: 0.55; BasE inh: 1.7

Results for CN(Cc1nc2ccccc2s1)S(=O)(=O)c1cccc(Cl)c1 ?
BasE inh: 2.2

Results for COc1ccc2nc(NS(=O)(=O)Cc3ccccc3)sc2c1 ?
KSHV LANA nucl: 0.66; BasE inh: 0.9

How did CCOC(=O)N1CCN(C(=O)CCCC2CCCCC2)CC1 do in these assays?
BasE inh: -0.3

Results for Brc1ccc2c(c1)OCCO2 ?
BasE inh: 1.6

What do the screens show for `CC(=O)NC(=S)Nc1nc2ccccc2n1C(C)=O`?
BasE inh: 0.8

What do the screens show for `CCNCc1ccncc1`?
BasE inh: 2.5

Results for O=C(CSc1nnc(-c2ccccc2)o1)N(CC1CCCO1)c1nc2ccccc2s1 (stereo unspecified) ?
BasE inh: 1.9

How did Cc1noc(C)c1S(=O)(=O)N(C)c1ccc(Br)cc1 do in these assays?
KSHV LANA nucl: 0.23; BasE inh: 1.9

How did CCC1CN(S(=O)(=O)c2cc(-c3onc(C)c3C)ccc2OC)c2cc(Cl)ccc2O1 (stereo unspecified) do in these assays?
BasE inh: 2.8

How did CN(C)S(=O)(=O)c1ccc(C(=O)OCC(=O)N2CCCCC2)cc1 do in these assays?
BasE inh: 0.9

What do the screens show for `Nc1nc(SCC(=O)OC2CCCC2)n[nH]1`?
KSHV LANA nucl: -0.14; BasE inh: 3.0

How did O=C(Cn1nnc2ccccc21)OCc1ccccc1 do in these assays?
BasE inh: 5.4

How did CN(C)/N=C/c1ccc(N2CCOCC2)cc1 do in these assays?
BasE inh: -0.6

Results for O=C(COc1ccc(F)c(Cl)c1)n1cccn1 ?
KSHV LANA nucl: 0.96; BasE inh: -0.4

What do the screens show for `CCC(C)C(NC(N)=O)C(=O)NC1CCC(C)CC1` (stereo unspecified)?
BasE inh: 0.2

What do the screens show for `NC(=O)C1CCN(Cc2cc(=O)oc3cc(O)ccc23)CC1`?
BasE inh: 1.2

Results for Cc1csc(SCc2cc(=O)c(OC(=O)c3ccco3)co2)n1 ?
KSHV LANA nucl: -0.13; BasE inh: 0.6

How did O=C(CN1C(=O)CSC1=O)Nc1nccs1 do in these assays?
BasE inh: 2.8

How did O=C(O)c1ccc(C2CCCCC2)cc1 do in these assays?
BasE inh: 0.8

How did CN1CCCN(CC(O)COCc2cccs2)CC1 (stereo unspecified) do in these assays?
BasE inh: 3.2

Results for O=C1CC2(CCCC2)C(=O)N1c1ccc(S(=O)(=O)N2CCc3ccccc3C2)cc1Cl ?
BasE inh: -0.6

What do the screens show for `CCCNC(=O)c1cnn2c1NC(c1cccc(OC)c1)CC2C(F)(F)F` (stereo unspecified)?
KSHV LANA nucl: -0.94; BasE inh: -0.5

What do the screens show for `O=c1[nH]c(-c2ccccc2)nn1-c1ccc(Br)cc1Br`?
KSHV LANA nucl: -0.38; BasE inh: 0.3

What do the screens show for `COCCCNc1nc2ccccc2n(CC(=O)N2CCCCCC2)c1=O`?
BasE inh: 1.1

What do the screens show for `CC(C)c1ccc(NC(=O)CSC2=Nc3ccccc3C3=NC(CC(=O)N4CCN(c5ccccc5)CC4)C(=O)N23)cc1` (stereo unspecified)?
KSHV LANA nucl: 0.2; BasE inh: 0.8

Results for COc1ccc(CCNC(=O)CSc2nc3ccccc3o2)cc1 ?
BasE inh: 3.3

Five neighbouring compounds from above:
What do the screens show for `CCCNC(=O)c1cnn2c1NC(c1cccc(OC)c1)CC2C(F)(F)F` (stereo unspecified)?
KSHV LANA nucl: -0.94; BasE inh: -0.5

What do the screens show for `O=c1[nH]c(-c2ccccc2)nn1-c1ccc(Br)cc1Br`?
KSHV LANA nucl: -0.38; BasE inh: 0.3

What do the screens show for `COCCCNc1nc2ccccc2n(CC(=O)N2CCCCCC2)c1=O`?
BasE inh: 1.1

What do the screens show for `CC(C)c1ccc(NC(=O)CSC2=Nc3ccccc3C3=NC(CC(=O)N4CCN(c5ccccc5)CC4)C(=O)N23)cc1` (stereo unspecified)?
KSHV LANA nucl: 0.2; BasE inh: 0.8

Results for COc1ccc(CCNC(=O)CSc2nc3ccccc3o2)cc1 ?
BasE inh: 3.3

More structures follow:
How did CC(=O)N1CCN(CC(O)COc2ccc3oc4ccccc4c3c2)CC1 (stereo unspecified) do in these assays?
BasE inh: -0.8

Results for O=C(NC1CCCC1)C(c1ccccc1)N(Cc1cccs1)C(=O)Cn1nnc2ccccc21 (stereo unspecified) ?
KSHV LANA nucl: -0.45; BasE inh: 3.7

Results for CCCCCCCCCCCC1=C(O)C(=O)C=C(O)C1=O ?
KSHV LANA nucl: 1.4; BasE inh: 0.9

What do the screens show for `Cc1cc(C)nc(NC(=NCc2ccc(Cl)cc2)NC(=O)C(C)N2C(=O)c3ccccc3C2=O)n1` (stereo unspecified)?
BasE inh: 1.7

What do the screens show for `CCOC(=O)c1cc(C#N)c(N2CCN(S(=O)(=O)c3ccccc3)CC2)nc1C(F)(F)F`?
KSHV LANA nucl: -1.4; BasE inh: 1.8

How did C=C(C)C(C)(C#CCN1CCCC1)OC(C)=O (stereo unspecified) do in these assays?
KSHV LANA nucl: 0.5; BasE inh: 1.7

How did CCOc1ccc(-n2c(SCC(=O)N3CCC(C)CC3)nc3n[nH]c(C)c3c2=N)cc1 do in these assays?
KSHV LANA nucl: -0.19; BasE inh: -0.5

Results for CCCc1cc(=O)[nH]c(SCC(=O)N2c3ccccc3NC(=O)C2(C)C)n1 ?
BasE inh: -1.4

What do the screens show for `N#C/C(=C/c1cn(CCC(N)=O)c2ccccc12)c1ccc(C#N)cc1`?
KSHV LANA nucl: 0.81; BasE inh: -1.4

Results for CCN1CCN(Cc2ccc(NC(=O)Cc3nc(-c4ccc(OC)cc4)no3)cc2)CC1 ?
KSHV LANA nucl: -0.069; BasE inh: -25

How did CCC(C)NC(=O)Cc1csc(-c2ccccc2)n1 (stereo unspecified) do in these assays?
KSHV LANA nucl: -0.62; BasE inh: -1.7

How did O=C(NCCc1cn2ccccc2n1)C1CCCCC1 do in these assays?
KSHV LANA nucl: 0.64; BasE inh: 2.4

What do the screens show for `S=C(NCCCn1ccnc1)NCc1cccs1`?
BasE inh: 0.7

Results for COc1cc(OC)c(C(=O)COc2ncnc3ccccc23)c(OC)c1 ?
BasE inh: -0.8

Results for Cc1cc(=O)oc2c(C)c(OC(=O)c3ccco3)ccc12 ?
KSHV LANA nucl: -1.1; BasE inh: 0.1

How did Cc1cccc(C)c1NC(=O)Cn1nc(-c2ccc3c(c2)OCCO3)ccc1=O do in these assays?
KSHV LANA nucl: -0.28; BasE inh: -2.3

What do the screens show for `Cn1nc(C(=O)N(Cc2cccs2)C2CCCC2)c2c1-c1ccccc1SC2`?
KSHV LANA nucl: 1; BasE inh: -0.2

Results for CC(C)(C)C(=O)/C=c1\s/c(=C\c2ccc3c(c2)OCO3)c(=O)n1Cc1cc(=O)n2ccsc2n1 ?
BasE inh: -4.0

How did C=CCNC(=O)c1ccccc1NC(=O)c1ccc(OC)cc1 do in these assays?
KSHV LANA nucl: -0.25; BasE inh: -3.5

Results for O=C(NN=C1CCCCCCC1)c1ccc(CN2CCOCC2)cc1 ?
KSHV LANA nucl: -0.0065; BasE inh: 2.9

A draw from above in order of number of heavy atoms, lowest first:
Results for Cc1cc(=O)oc2c(C)c(OC(=O)c3ccco3)ccc12 ?
KSHV LANA nucl: -1.1; BasE inh: 0.1

Results for O=C(NN=C1CCCCCCC1)c1ccc(CN2CCOCC2)cc1 ?
KSHV LANA nucl: -0.0065; BasE inh: 2.9

Results for CC(C)(C)C(=O)/C=c1\s/c(=C\c2ccc3c(c2)OCO3)c(=O)n1Cc1cc(=O)n2ccsc2n1 ?
BasE inh: -4.0

The list continues.
What do the screens show for `COc1ccc(-c2csc(Cc3nnc4n3CCCCC4)n2)cc1`?
BasE inh: 0.4

What do the screens show for `COC(=O)c1cc2sccc2n1Cc1nc(-c2ccccc2F)oc1C`?
KSHV LANA nucl: 0.67; BasE inh: -0.7

Results for CCOC(=O)CSc1nnc(Cn2nnc3ccccc32)n1-c1ccc(F)cc1 ?
BasE inh: -0.6

How did CCOC(=O)c1c(-c2ccccc2)oc2ccc(OCC(O)CN(C)C)cc12 (stereo unspecified) do in these assays?
BasE inh: -11

Results for O=C(Nc1ccc(-c2nc3ccccc3o2)cc1)c1ccc(Br)o1 ?
KSHV LANA nucl: -0.65; BasE inh: 0.5

What do the screens show for `Cn1nc(N2CCCCCC2)c(=O)n(C)c1=O`?
BasE inh: 1.6

How did CCn1c(=Nc2ccc(N3CCOCC3)cc2)ccc2ccccc21 do in these assays?
KSHV LANA nucl: 0.066; BasE inh: -0.3

How did CCn1c(SCCCC(=O)c2ccc(Br)cc2)nnc1-c1cccs1 do in these assays?
BasE inh: -0.4

Results for CC(C)c1nc2cc(N)ccc2n1C ?
KSHV LANA nucl: 0.5; BasE inh: -0.4

Assay outcomes as filed in PubChem BioAssay.
